# Screens from PubChem BioAssay.
# Cruzain inh noDet = cruzain (T. cruzi) inhibition without detergent. P25779. purified cruzain, Z-FR-AMC fluorescence, no detergent. Potency, µM, inactives show max response, negative = inhibition, hits mostly inhibitors. 2.3% of 200,000 active. AID 1476;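 further: plate controls were enzyme without inhibitor for no effect and buffer without enzyme for full effect; nearly all actives have a fitted effect of over 40% in size; top concentration of the series not given in the record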
# Target sequence (P25779 123-467 limits assumed): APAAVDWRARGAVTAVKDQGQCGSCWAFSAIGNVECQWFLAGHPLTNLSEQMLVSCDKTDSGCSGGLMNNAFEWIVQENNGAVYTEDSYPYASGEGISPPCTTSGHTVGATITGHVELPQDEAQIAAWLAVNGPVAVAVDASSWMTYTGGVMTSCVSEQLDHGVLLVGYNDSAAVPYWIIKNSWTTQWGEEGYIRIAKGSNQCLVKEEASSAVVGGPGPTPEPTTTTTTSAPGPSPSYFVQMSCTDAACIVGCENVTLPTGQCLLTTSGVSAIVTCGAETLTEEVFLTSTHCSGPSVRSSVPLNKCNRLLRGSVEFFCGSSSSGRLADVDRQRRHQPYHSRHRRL
#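 Purified cruzain at 1.5 nM, pre-incubated 15 min with compound at room temperature in 100 mM sodium acetate pH 5.5, 5 mM DTT, 0.00005% Triton X-100. Reaction started with 2 uM Z-FR-AMC; AMC fluorescence increase over 60 s gives rate.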
# RE007 growth inh = less growth of the S. pombe RE007 Vpr strain | Potency, µM (series often up to 92.2 µM), inactives show at the top dose activity change, negative = less growth | S. pombe RE007 Vpr strain, BacTiter-Glo ATP luminescence, 24 h; control for the full effect not named in the record | 0.21% of 360,000 active | AID 651644; active = well fitted falling curve with a large enough effect; inconclusive = small, poorly fitted or top-dose-only effect; inactive = no such curve, though single readings can be large or run the other way;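 further: on the % scale 0 is the no-effect control and ±100 the full control effect; nearly all actives have a fitted effect of over 50% in size; the assay follows cell death caused by Vpr and the record does not say whether a fall means rescue or toxicity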
#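 Fission yeast strain RE007, carrying one chromosomally integrated HIV-1 vpr copy, was seeded at OD 0.01 in PMG+AL medium with 23 nL pinned compound. After 24 h at 30 °C and 99% humidity, viability was read by BacTiter-Glo luminescence.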
# Marburg entry inh = blocks Marburg virus binding to or entry into cells; 1.8% of 300,000 active; Marburg virus pseudotyped entry inhibition, cell reporter; control for the full effect not named in the record; about a third of the inactives were read at about 46 µM; Potency, µM (series often up to 37.8 µM), for inactives: at the top dose activity change, negative = inhibition, most hits filed as inhibitors; active = well fitted inhibition curve with a large enough effect; inconclusive = small, poorly fitted or top-dose-only effect, or effect the other way; inactive = flat fitted curve, though single readings scatter; tested in HEK293 cells; about a fifth of its hits are not listed in these tables; further: on the % scale 0 is the no-effect control and ±100 the full control effect; luciferase read-out
# NS1 inh = blocks influenza NS1 protein function; S. cerevisiae slowed by influenza A NS1, growth recovery by OD600; Potency, µM (titrated, usually from 46.1 µM), for inactives: top-dose activity, positive = more growth; 0.4% of 270,000 active; active means well fitted rising curve with a large enough effect; inconclusive means small, poorly fitted or top-dose-only effect; inactive means no such curve, though single readings can be large or run the other way; further: nearly all actives have a fitted effect of over 50% in size
#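 In this qHTS, NS1 from influenza A is expressed in budding yeast, where it slows growth. Cells are switched from glucose to 2% galactose medium (pH 6.0, -URA), treated with compound, and growth recovery is read at OD600.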
# StopGo reporter = FMDV 2A StopGo reporter, luciferase signal; human cells with a luciferase reporter of 2A StopGo recoding; control for the full effect not named in the record; Potency, µM (doses to about 57.9 µM), without a hit: at the highest dose signal change, negative = less light; 1.2% of 410,000 active; active = well fitted falling curve with a large enough effect; inconclusive = small, poorly fitted or top-dose-only effect; inactive = no such curve, though single readings can be large or run the other way; tested in HEK293T cells; further: on the % scale 0 is the no-effect control and ±100 the full control effect; nearly all actives have a fitted effect of over 45% in size; luciferase light after 4 h
# Lassa entry inh = Lassa virus entry inhibition; 1.2% of 300,000 active; Lassa virus pseudotype entry inhibition, cell reporter; control for the full effect not named in the record; Potency, µM (doses to about 37.9 µM), for the others: at the highest dose activity change, negative = inhibition, most hits filed as inhibitors; active means well fitted inhibition curve with a large enough effect; inconclusive means small, poorly fitted or top-dose-only effect, or effect the other way; inactive means flat fitted curve, though single readings scatter; tested in HEK293 cells; further: on the % scale 0 is the no-effect control and ±100 the full control effect; nearly all actives have a fitted effect of over 50% in size; luciferase read-out
# SARS PLP yeast = SARS-CoV PLP inhibition in yeast; 0.19% of 330,000 active; S. cerevisiae expressing SARS-CoV PLpro, growth rescue; control for the full effect not named in the record; Potency, µM (doses to about 32.9 µM), for inactives: at the top dose activity, positive = growth rescue; active means well fitted rising curve with a large enough effect; inconclusive means small, poorly fitted or top-dose-only effect; inactive means no such curve, though single readings can be large or run the other way; further: 0% is about no effect; nearly all actives have a fitted effect of over 55% in size; growth read by luminescence after 48 h
# Cruzain inh Det = inhibitors of Trypanosoma cruzi cruzain with detergent; P25779; AID 1478; purified cruzain, Z-FR-AMC fluorescence, 0.01% Triton; 0.43% of 200,000 active; Potency, µM, for the others: max response, negative = inhibition, hits mostly inhibitors;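 further: plate controls were neutral wells for no effect and buffer without enzyme for full effect; nearly all actives have a fitted effect of over 40% in size; top concentration of the series not given in the record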
#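 15 min RT preincubation of 1.5 nM cruzain with compound, then 2 uM Z-FR-AMC added; kinetic AMC fluorescence, 60 s delta. Triton X-100 0.01%, pH 5.5.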
# Active calls of the source: *; ? = inconclusive; . = not tested or not shown; [ ] = remark or other dose. Unless noted, the call rests on the fitted dose curve; in most records, active means well fitted curve in the direction sought with a large enough effect; inconclusive means small, poorly fitted or top-dose-only effect, or another doubt; inactive means no such curve, though single readings can be large; an effect the other way counts as inactive or inconclusive. Potency means the concentration at half of the fitted maximal effect.
SMILES	Marburg entry inh	NS1 inh	Lassa entry inh	RE007 growth inh	StopGo reporter	Cruzain inh Det	SARS PLP yeast	Cruzain inh noDet
CCOc1ccc(S(=O)(=O)N2CCc3cc(OC)c(OC)cc3C2)cc1	-11.2%	-8.6%	-5.3%	49.7%	-27.4%	-6.7%	-2.4%	?
COc1ccccc1C(=O)NNC(=O)c1ccccc1Br	.	-0.4%	.	-26.8%	25.8%	.	1.7%	.
O=C(NC1CC(=O)N(c2ccc(F)cc2)C1)C1CCCCC1 (configuration not stated)	.	.	9.9%[46.1 µM]	.	-3.3%	-0.2%	.	7.2%
COc1ccc2cc3cc(C(=O)NCc4cccnc4)oc3nc2c1	-24.5%[46.1 µM]	.	-4.8%	-8.1%	5.7%	.	1.5%	.
COc1ccc2c(c1)cc1n2CCN=C1NN	?	2.2%	-5.2%	?	19.2%	0.9%	-3.9%	2.8%
COc1ccc(C)cc1-n1c(-c2ccc(C)cc2)cc2c1CC(C)(C)CC2=O	0.3%[46.1 µM]	.	16.7%[46.1 µM]	.	-2.9%	2.1%	.	36.1%
O=C(NCc1ccccc1)c1ccc(COCC(F)(F)F)o1	9.1%	-3.3%	1.0%	1.3%	.	-2.4%	1.4%	1.0%
Cc1cc(/C=N\NC(=O)CC(=O)NC2CCCCC2)c(C)n1-c1ccc(Cl)cc1	-14.2%	3.7%	-5.6%	4.7%	-15.6%	-10.4%	3.3%	3.2%
CN(C)CCCNC(=O)C(=O)Nc1cc2c3c(c1)CCC(=O)N3CCC2	.	5.1%	.	-4.8%	5.6%	.	2.5%	.
O=C(CCc1nnc2n(Cc3ccc(F)cc3)c(=O)c3ccccc3n12)NCCN1CCOCC1	.	-16.7%	.	-11.8%	?	.	?	.
Cc1cc(C)n(-c2cc(N3CCN(S(=O)(=O)c4ccc(Cl)cc4)CC3)ccc2[N+](=O)[O-])n1	-36.2%	?	?	6.0%	0.0%	-3.0%	10.4%	-7.3%
COc1ccccc1NC(=O)c1nnn(Cc2ccccc2)c1NC(=O)C(F)(F)F	?	2.8%	-5.0%	7.1%	-11.2%	-8.2%	0.6%	26.1%

# Entries of single compounds from above. Values in the order: Marburg entry inh	NS1 inh	Lassa entry inh	RE007 growth inh	StopGo reporter	Cruzain inh Det	SARS PLP yeast	Cruzain inh noDet
# Shown for CCOc1ccc(S(=O)(=O)N2CCc3cc(OC)c(OC)cc3C2)cc1 → -11.2%	-8.6%	-5.3%	49.7%	-27.4%	-6.7%	-2.4%	?
# Shown for COc1ccc(C)cc1-n1c(-c2ccc(C)cc2)cc2c1CC(C)(C)CC2=O → 0.3%[46.1 µM]	.	16.7%[46.1 µM]	.	-2.9%	2.1%	.	36.1%
# Shown for O=C(NC1CC(=O)N(c2ccc(F)cc2)C1)C1CCCCC1 (configuration not stated) → .	.	9.9%[46.1 µM]	.	-3.3%	-0.2%	.	7.2%
# Shown for CN(C)CCCNC(=O)C(=O)Nc1cc2c3c(c1)CCC(=O)N3CCC2 → .	5.1%	.	-4.8%	5.6%	.	2.5%	.
# Shown for O=C(CCc1nnc2n(Cc3ccc(F)cc3)c(=O)c3ccccc3n12)NCCN1CCOCC1 → .	-16.7%	.	-11.8%	?	.	?	.

# Additional records
SMILES	Marburg entry inh	NS1 inh	Lassa entry inh	RE007 growth inh	StopGo reporter	Cruzain inh Det	SARS PLP yeast	Cruzain inh noDet
Cc1ccc(Cl)cc1N1CCN(C(=O)COc2ccc3c(c2)CCC3)CC1	?	18.6%	-22.1%[46.1 µM]	-5.3%	-18.8%	-9.4%	-13.9%	1.6%
O=C(c1cccc(NS(=O)(=O)c2ccccc2)c1)N1CCN(c2ccccc2)CC1	-7.9%[46.1 µM]	.	21.3%	11.9%	-20.3%	.	-2.1%	.
CC1Sc2ccc(S(=O)(=O)N3CCC(C(=O)NCc4ccc(Cl)cc4)CC3)cc2NC1=O (configuration not stated)	?	-2.4%	-46.0%[46.1 µM]	-1.0%	?	.	-2.8%	.
CCN1CCc2nc(NC(=O)c3cc(F)c(F)cc3Cl)sc2C1	?	-2.5%	?	-3.6%	20.8%	.	-0.6%	.
O=C(Cn1c(=O)c(C(F)(F)F)nc2ccccc21)N1CCC2(CC1)OCCO2	-1.4%	-0.7%	-2.8%	0.0%	13.5%	-3.1%	5.1%	-2.3%
NC(=O)c1sc2nc3c(cc2c1N)CCCCCC3	16.4%[46.1 µM]	-0.7%	9.2%	-4.2%	29.3%	.	-1.7%	.
COC(=O)Cn1c(O)c(N=NC(=O)CNC(=O)COc2cccc(C)c2)c2ccccc21	.	-9.1%	.	-10.1%	-10.4%	.	21.6%	.
CCc1noc(C)c1C(=O)NCCc1ccc(F)cc1	14.5%	.	9.2%	-21.3%	-10.6%	.	-6.0%	.
Cn1cc([N+](=O)[O-])c(C(=O)NNC(=O)c2ccc([N+](=O)[O-])cc2Cl)n1	9.3%[46.1 µM]	.	21.4%[46.1 µM]	-9.4%	5.7%	.	-4.7%	.
O=C(c1ccccc1)c1cccc2ccccc12	2.8%[46.1 µM]	.	-14.7%[46.1 µM]	0.9%	-11.8%	.	.	.
CCOC(=O)c1ccccc1NC(=O)Cn1cnc2c(oc3ccccc32)c1=O	15.9%	-0.7%	?	5.9%	42.0%[activator]	5.0%	.	-12.2%
COc1ccc(S(=O)(=O)Nc2ccc3oc4c(c3c2)CCCC4)cc1	10µM*	.	?	.	24.8%	-10.7%	.	?

# Further structures.
SMILES	Marburg entry inh	NS1 inh	Lassa entry inh	RE007 growth inh	StopGo reporter	Cruzain inh Det	SARS PLP yeast	Cruzain inh noDet
COc1ccc(/C=N/NC(=O)c2[nH]ncc2Br)c(OC)c1	14.8%	7.3%	?	2.2%	.	-1.8%	0.9%	-0.6%
Cc1ccccc1-c1nc(CS(=O)CC(=O)NCc2ccccc2)c(C)o1 (configuration not stated)	.	-7.3%	.	8.2%	25.6%	-2.3%	-0.8%	6.4%
Cc1nnc(N2C(=O)C(=O)/C(=C(/O)c3ccc4c(c3)CC(C)O4)C2c2ccccc2F)s1 (configuration not stated)	8.0%[46.1 µM]	23.9%	26.4%[46.1 µM]	3.1%	-4.2%	.	-6.0%	.
O=C1NC2(CCCCCC2)Cc2ccccc21	?	-3.8%	15.2%	4.8%	5.0%	1.1%	2.0%	-7.6%
O=c1[nH]cnc2cc(-c3ccc(Br)cc3)sc12	?	-16.6%	.	-10.9%	17.8%	.	-1.7%	.
O=C(CCCn1nnnc1CN1CCOCC1)N1CCN(c2ccccc2F)CC1	-3.8%	2.7%	-8.2%	-29.3%	-10.2%	.	?	.
CCn1ncc(Cl)c1C(=O)NC(=S)Nc1ccccc1Br	5.8%	-42.3%	-22.5%	-10.8%	-25.8%	.	2.2%	.
Cc1ccc(NC(=O)CN(C)S(=O)(=O)c2cccc3cccnc23)cc1C	.	11.6%	.	-1.7%	-32.8%	.	-3.3%	.
Cn1nc(C(=O)NC2CCCCCC2)ccc1=O	-1.3%	-0.8%	-0.3%	-16.2%	-2.5%	3.0%	-2.6%	-11.0%
CCOc1ccc(N(C(C)C(=O)NC(C)CC)S(C)(=O)=O)cc1 (configuration not stated)	-0.2%	-19.7%	-11.1%	-12.7%	8.9%	5.1%	-2.3%	-2.7%
O=C(O)c1ccc(NCc2cccc(Br)c2)cc1	-15.0%	-65.6%	-2.8%	-11.2%	-9.2%	-6.0%	-22.2%	-5.1%
Cc1ccc(NC(=O)CC2S/C(=N/N=C/c3ccco3)NC2=O)cc1Cl (configuration not stated)	-1.1%[46.1 µM]	.	-3.3%	7.2%	8.4%	.	-0.6%	.

# The list goes on.
SMILES	Marburg entry inh	NS1 inh	Lassa entry inh	RE007 growth inh	StopGo reporter	Cruzain inh Det	SARS PLP yeast	Cruzain inh noDet
Cc1cc(Br)c(NC(=O)COn2nnc3ccc(S(C)(=O)=O)cc32)c(Br)c1	?	.	28.3%	-1.1%	-22.8%	.	1.9%	.
Cc1cc(Br)c(NC(=O)CCl)c(Br)c1	?	?	-14.2%	18.0%	?	10.3%	2.6%	0.6%
Cn1nnnc1NCc1cccc(Cl)c1	?	3.1%	5.6%[46.1 µM]	-13.1%	-20.0%	.	0.1%	.
CC(=O)c1cc(C#N)c(SCc2ccccc2C#N)nc1C	?	-0.8%	?	-4.7%	-17.4%	-7.3%	9.8%	-13.7%
O=C(Nc1cccc(Cl)c1)c1cc(-c2ccc3c(c2)OCCO3)on1	.	.	4.5%[46.1 µM]	.	?	-5.1%	.	-18.1%
Cc1ccc2nc(NC(=O)C3CCN(S(=O)(=O)c4cccs4)CC3)sc2c1	?	-30.8%	10.3µM*	-13.7%	?	2.8%	-19.5%	?
Cc1ccc(-n2ncc3c(Nc4cccc(C(F)(F)F)c4)ncnc32)cc1C	.	.	?	.	-5.4%	1.4%	.	-7.7%
CCC(CC)c1nc(C(N)=O)c2[nH]c(=O)n(-c3ccc(OC)c(OC)c3)c2n1	22.0%[46.1 µM]	5.5%	-9.8%[46.1 µM]	6.9%	-14.1%	.	21.1%	.
Cc1ccc(S(=O)(=O)C2CS(=O)(=O)CC2O)cc1 (configuration not stated)	18.5%	6.5%	7.3%	-5.2%	.	9.1%	29.0%	1.2%
CCCc1cc(=O)[nH]c(SCC(=O)Nc2c(C)n(C)n(-c3ccccc3)c2=O)n1	-0.2%[46.1 µM]	.	8.2%[46.1 µM]	0.4%	-4.5%	.	16.8%	.
Cc1ccc(-n2nc(C)c3c(C)c(CCC(=O)O)c(C)nc32)cc1C	.	-32.1%	.	-10.2%	-8.2%	.	-0.4%	.
Fc1cccc(COc2ccccc2CNc2ccccc2)c1	?	11.0%	1.0%	-5.2%	-11.9%	-5.2%	?	-3.7%
CCOC(=O)N1CCc2c(sc(NC(=O)CN(CC)CC)c2C#N)C1	-8.3%[46.1 µM]	0.6%	-18.6%[46.1 µM]	9.5%	-21.9%	.	0.3%	.
Cc1ccc(Cl)cc1NC(=O)Cn1c(=O)c2ccccc2n2nncc12	1.9%[46.1 µM]	.	-6.4%[46.1 µM]	.	-11.5%	-1.4%	.	10.7%
COc1ccccc1C(=O)Nc1c(-c2ccccc2)nc2ccccn12	5.1%[46.1 µM]	-0.2%	-7.4%[46.1 µM]	0.4%	-4.9%	.	-1.1%	.
